# MARV entry inh: inhibitors of Marburg virus binding or cell entry | Marburg virus pseudotyped entry inhibition, cell reporter; control for the full effect not named in the record; about a third of the inactives were read at about 46 µM | Potency, µM (highest dose often 37.8 µM), for the others: at the top dose activity change, negative = inhibition, most hits filed as inhibitors | 1.8% of 300,000 active | AID 540276; active = well fitted inhibition curve with a large enough effect; inconclusive = small, poorly fitted or top-dose-only effect, or effect the other way; inactive = flat fitted curve, though single readings scatter; tested in HEK293 cells; about a fifth of its hits are not listed in these tables; note: % is set by controls: 0 for no effect and ±100 for the full control effect; luciferase read-out
# Cruzain inh Det: inhibitors of Trypanosoma cruzi cruzain with detergent; purified cruzain, Z-FR-AMC fluorescence, 0.01% Triton; 0.43% of 200,000 active; AID 1478; P25779; Potency, µM, without a hit: max response, negative = inhibition, usual class: inhibitors; active = well fitted curve in the direction sought with a large enough effect; inconclusive = small, poorly fitted or top-dose-only effect, or another doubt; inactive = no such curve, though single readings can be large; an effect the other way counts as inactive or inconclusive;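 note: plate controls were neutral wells for no effect and buffer without enzyme for full effect; nearly all actives have a fitted effect of over 40% in size; top concentration of the series not given in the record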
# Target sequence (P25779 123-467 limits assumed): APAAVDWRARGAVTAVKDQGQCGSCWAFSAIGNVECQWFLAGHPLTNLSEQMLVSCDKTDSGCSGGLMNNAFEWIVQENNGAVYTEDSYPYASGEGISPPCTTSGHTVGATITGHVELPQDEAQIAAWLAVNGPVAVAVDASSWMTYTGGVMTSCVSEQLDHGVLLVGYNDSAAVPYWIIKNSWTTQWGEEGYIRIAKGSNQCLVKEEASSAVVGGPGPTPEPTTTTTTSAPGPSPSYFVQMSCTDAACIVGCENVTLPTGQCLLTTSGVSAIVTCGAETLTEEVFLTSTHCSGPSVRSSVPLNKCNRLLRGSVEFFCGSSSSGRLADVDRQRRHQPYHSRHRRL
#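 15 min RT preincubation of 1.5 nM cruzain with compound, then 2 uM Z-FR-AMC added; kinetic AMC fluorescence, 60 s delta. Triton X-100 0.01%, pH 5.5.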
# Lassa entry inh: inhibitors of Lassa virus binding or cell entry; 1.2% of 300,000 active; Lassa virus pseudotype entry inhibition, cell reporter; control for the full effect not named in the record; Potency, µM (series often up to 37.9 µM), for inactives: at the highest dose activity change, negative = inhibition, most hits filed as inhibitors; active means well fitted inhibition curve with a large enough effect; inconclusive means small, poorly fitted or top-dose-only effect, or effect the other way; inactive means flat fitted curve, though single readings scatter; tested in HEK293 cells; note: % is set by controls: 0 for no effect and ±100 for the full control effect; nearly all actives have a fitted effect of over 50% in size; luciferase read-out
# NS1 function inh: blocks influenza NS1 protein function; S. cerevisiae slowed by influenza A NS1, growth recovery by OD600; Potency, µM (series often up to 46.1 µM), inactives show at the top dose activity, positive = more growth; 0.4% of 270,000 active; note: actives are rising curves; nearly all actives have a fitted effect of over 50% in size
#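 Read-out: OD600 growth recovery of NS1-expressing budding yeast. Cells grown overnight at 30C in -URA glucose medium, washed, resuspended and diluted 1:100 in 2% galactose assay medium, pH 6.0. Same strain lacking NS1 served as positive control.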
# 2A StopGo: FMDV 2A StopGo reporter, luciferase signal; human cells with a luciferase reporter of 2A StopGo recoding; control for the full effect not named in the record; Potency, µM (top dose mostly 57.9 µM), for inactives: top-dose signal change, negative = less light; 1.2% of 410,000 active; active = well fitted falling curve with a large enough effect; inconclusive = small, poorly fitted or top-dose-only effect; inactive = no such curve, though single readings can be large or run the other way; tested in HEK293T cells; note: % is set by controls: 0 for no effect and ±100 for the full control effect; nearly all actives have a fitted effect of over 45% in size; luciferase light after 4 h
# Cruzain noTriton: blocks cruzain activity in detergent-free assay; P25779; purified cruzain, Z-FR-AMC fluorescence, no detergent; Potency, µM, for inactives: max response, negative = inhibition, actives largely listed as inhibitors; 2.3% of 200,000 active; AID 1476; active = well fitted curve in the direction sought with a large enough effect; inconclusive = small, poorly fitted or top-dose-only effect, or another doubt; inactive = no such curve, though single readings can be large; an effect the other way counts as inactive or inconclusive;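 note: plate controls were enzyme without inhibitor for no effect and buffer without enzyme for full effect; nearly all actives have a fitted effect of over 40% in size; top concentration of the series not given in the record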
#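 Purified cruzain at 1.5 nM, pre-incubated 15 min with compound at room temperature in 100 mM sodium acetate pH 5.5, 5 mM DTT, 0.00005% Triton X-100. Reaction started with 2 uM Z-FR-AMC; AMC fluorescence increase over 60 s gives rate.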
# SARS PLpro yeast: SARS-CoV PLP inhibition in yeast; S. cerevisiae expressing SARS-CoV PLpro, growth rescue; control for the full effect not named in the record; Potency, µM (top dose mostly 32.9 µM), for the others: top-dose activity, positive = growth rescue; 0.19% of 330,000 active; AID 485353; note: 0% is about no effect; nearly all actives have a fitted effect of over 55% in size; growth read by luminescence after 48 h
# RE007 growth inh: less growth of the S. pombe RE007 Vpr strain. 0.21% of 360,000 active. S. pombe RE007 Vpr strain, BacTiter-Glo ATP luminescence, 24 h; control for the full effect not named in the record. Potency, µM (series often up to 92.2 µM), for the others: at the highest dose activity change, negative = less growth; active = well fitted falling curve with a large enough effect; inconclusive = small, poorly fitted or top-dose-only effect; inactive = no such curve, though single readings can be large or run the other way;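 note: % is set by controls: 0 for no effect and ±100 for the full control effect; nearly all actives have a fitted effect of over 50% in size; the assay follows cell death caused by Vpr and the record does not say whether a fall means rescue or toxicity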
#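 Fission yeast strain RE007, carrying one chromosomally integrated HIV-1 vpr copy, was seeded at OD 0.01 in PMG+AL medium with 23 nL pinned compound. After 24 h at 30 °C and 99% humidity, viability was read by BacTiter-Glo luminescence.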
# An asterisk follows results filed as active; ? = inconclusive; / = not tested or not shown; & = joins results of further samples; [ ] = dose if it differs, or a comment. Unless noted, calls come from the whole dose curve; as a rule, active means well fitted rising curve with a large enough effect; inconclusive means small, poorly fitted or top-dose-only effect; inactive means no such curve, though single readings can be large or run the other way. Potency is the fitted concentration of half-maximal effect. Outcome played no part in choosing rows (roughly 4.7% active in at least one column).
SMILES,MARV entry inh,Cruzain inh Det,Lassa entry inh,NS1 function inh,2A StopGo,Cruzain noTriton,SARS PLpro yeast,RE007 growth inh
CCOc1ccccc1N1CCN(C(=O)c2ccc(OCC(=O)N3CCOCC3)c(OC)c2)CC1,3%[46.1 µM],/,22%[46.1 µM],-3%,33%,/,-5%,-14%
CCN1CCS/C1=C\C=C\C1=[N+](CC)CCS1,2.5µM*,/,/,/,?,/,-11%,?
O=[N+]([O-])c1cc(C(F)(F)F)ccc1NCCNC(=S)Nc1ccc(Cl)cc1,?,-18%,?,-76%,/,-3%,17%,8%
O=C(Cn1c(=O)cnc2ccccc21)NC1CCC(O)CC1 (configuration not stated),2%[46.1 µM],/,-11%,/,3%,/,-1%,-19%
COc1nc(N(C)S(=O)(=O)c2ccc(C)cc2)nc(C)c1Cl,-17%&-17%,-5.8%,-27%,-1%,-8%,1%,1%,-8%
Cc1cccc(N=Cc2cc(Br)cc(Cl)c2O)c1,3%[46.1 µM],/,4%,/,-8%,/,2%,?
Cc1ccccc1NC(=O)C1CCCN(S(=O)(=O)c2cccc3cccnc23)C1 (configuration not stated),0%,-5.4%,/,-1%,-22%,3%,3%,-6%
CCCCP(=O)(CCCC)Cc1ccccc1,6%,9.4%,21%,-5%,-12%,-6%,9%,10%
CCCCc1nc2cc(C(=O)NCCc3c(C)n[nH]c3C)ccc2o1,-2%,/,-8%,/,25%,/,/,1%
COc1ccccc1N1CCN(C(=S)Nc2ccccc2)CC1,-17%,/,3%,13%,-12%&-5%,/,6%,2%&-9%
Cc1c(C(=O)Nc2ccc3oc(-c4cccnc4)nc3c2)oc2ccccc12,-19%,-22%,18µM*,-5%,-13%,?,-1%,-9%
Cc1ccc(NC(=O)C2CCN(c3ncnc4c3nc3n4CCCCC3)CC2)nc1,/,/,/,-27%,?,/,-3%,-7%
N#Cc1ccccc1OCC(=O)NC(N)=O,18%,5.7%,-2%,3%,11%,-2%,2%,-1%
CCC1CCCCN1C(=O)c1ccc(OC2CCN(C(=O)C3CC3)CC2)cc1 (configuration not stated),-11%[46.1 µM],/,-16%,4%,-15%,/,0%,14%
COc1ccc(N2CCN(S(=O)(=O)c3c(C)[nH]c(=O)[nH]c3=O)CC2)cc1,/,2.1%,6%[46.1 µM],/,-15%,-4%,/,/
CN1C(=O)NC(c2ccc(O)cc2)C2=C1CN(c1cccc3ccccc13)C2=O (configuration not stated),3%[46.1 µM],/,2%,7%,17%,/,3%,30%
O=C(Nc1ccccc1O)c1ccc([N+](=O)[O-])cc1,/,/,/,-3%,23%,/,0%,-3%
Cc1ccn2c(=O)c(NC(=O)c3cccc([N+](=O)[O-])c3C)c(C)nc2c1,/,-10%,?,/,-4%,-15%,/,/
Cc1cccc(COC(=O)C(Cc2ccccc2)NC(N)=O)c1 (configuration not stated),-13%[46.1 µM],/,-16%[46.1 µM],0%,36%,/,-4%,0%
CC(=O)N1c2ccc(S(=O)(=O)N3CCC(C(=O)NC4CCCC(C)C4C)CC3)cc2CC1C (configuration not stated),/,/,/,7%,-18%,/,0%,-1%
COc1ccc(Cl)cc1NC(=O)CSc1nc(N2CCCCC2)nc(N2CCCCC2)n1,0%&-21%,6.0%,12%,-10%,-29%,16µM*,-1%,-22%
Cc1cc(C(=O)NCC2CCCCC2)ccc1[N+](=O)[O-],-1%[46.1 µM],/,-14%,-19%,52%[activator],/,-6%,3%
O=C(CN(C(=O)CNC(=O)c1cccs1)c1cccc(F)c1)NC1CCCC1,13%[46.1 µM],/,/,0%,11%,/,0%,26%
C/C(=N/NS(=O)(=O)c1ccccc1)c1ccc(Cl)cc1,9%[46.1 µM],/,4%,0%,84%[activator],/,-1%,31%
COc1ccc(C)cc1NC(=O)Nc1cccc(C)c1,/,/,/,-11%,2%,/,-2%,-12%
Clc1ccc(-c2csc(N/N=C\c3cccnc3)n2)cc1,?,-6.8%,-20%,6%,?,-25%,-27%,16%
CCCCCn1c(NCc2ccco2)nc2ccccc21,2%,1.5%,/,-81%,-10%,2%,5%,-2%
Cc1cc(C)nc(NS(=O)(=O)c2ccc(NC(=O)COc3ccc(Cl)cc3C)cc2)n1,1%[46.1 µM],-14%,-1%[46.1 µM],/,36%[activator],?,/,/
CN(Cc1cccs1)C(=O)CCc1ccc(S(=O)(=O)N2CCOCC2)cc1,-4%,8.6%,-4%,-4%,-15%,11%,0%,-9%
COc1ccc2nc(CC(C)(C)CC(=O)O)c[n+]([O-])c2c1,-2%,-8.2%,5%,12%,-12%,-10%,-3%,-10%
CCCCn1c(N)c(N(CCOC)C(=O)Cn2c(=O)oc3ccccc32)c(=O)[nH]c1=O,18%[46.1 µM],/,5%,/,-3%,/,-4%,6%
COc1ccccc1-c1ccc(SCc2ccc([N+](=O)[O-])cc2)nn1,10µM*,/,?,/,-14%,/,-4%,12%
CCOC(=O)c1ccc(NC(=O)c2ccc(-c3cccc(Cl)c3C)o2)cc1,/,-11%,0%[46.1 µM],/,-29%,-22%,/,/
CCN(CC)C(=O)CSc1nc2ccccc2c(=O)[nH]1,3%,-0.9%,-4%,-16%,14%,-5%,3%,10%
CC(C)=CC(=O)OCC(=O)NC1CCCc2ccccc21 (configuration not stated),10%[46.1 µM],/,6%,-2%,-8%,/,-1%,-13%
CCC(C)NC(=O)c1cn(CC)c2ccc(S(=O)(=O)N(C)C)cc2c1=O (configuration not stated),/,-5.1%,/,3%,-10%,2%,-20%,-7%
Cc1cc(=O)[nH]c(SCC2(O)C3CC4CC(C3)CC2C4)n1 (configuration not stated),?,1.9%,2%,-8%,-3%,2%,-5%,-7%
O=C(Nc1cccc([N+](=O)[O-])c1)c1ccc2c(c1)OCO2,30%,-2.2%,0%,5%,0%,5%,-1%,-13%
COc1ccc(S(=O)(=O)NC2CCCC2)c(Cl)c1Cl,-11%,-4.8%,-11%,-152%,62%[activator],6%,-26%,5%
O=C(Nc1nc2ccc(F)cc2s1)C1=COCCO1,?,/,2.8µM*,/,?,/,-2%,?
CCCCC12CN3CC(C)(CN(C1)C3c1c(C)[nH]c(=O)[nH]c1=O)C2=O (configuration not stated),2%[46.1 µM],1.2%,14%[46.1 µM],/,-6%,0%,/,/
CC(NC(=O)[C@H](Cc1c[nH]c2ccccc12)NC(=O)[C@@H]1Cc2ccccc2CN1)c1ccccc1 (some centres not stated),/,/,/,13%,-20%,/,-9%,-1%
CC12CN3CC(=O)N4CC5(C)CN(CC(C)(C4)C5=O)C(=O)CN(C1)CC(C)(C3)C2=O,2%&2%,2.6%,?,2%,2%,-1%,2%,1%
O=C(CS(=O)(=O)c1ccc(Cl)cc1)NCCS(=O)(=O)c1ccc(Cl)cc1,5%[46.1 µM],/,16%[46.1 µM],/,15%,/,-3%,-7%
S=C1N(c2ccccc2)C(c2ccc(Cl)cc2)N2CCCN12 (configuration not stated),10%,-1.4%,17%,6%,-14%,3%,5%,4%
O=C(NCCOc1ccc(F)cc1)C1CCC(=O)N(CC2CCCCC2)C1 (configuration not stated),/,/,/,-10%,-13%,/,27%,-7%
COC(=O)c1cc(NC(=S)NC(=O)c2ccccc2)ccc1N1CCOCC1,/,/,/,-16%,-18%,/,?,-18%
CCC(=O)c1cn(CC(=O)Nc2ccccc2F)c2ccccc12,-1%,/,-1%,-1%,-16%,/,1%,3%
CCc1sc(C(=O)Nc2nc(-c3ccccn3)cs2)cc1C,?,/,?,/,12%,/,-22%,?
CC(C)(C)c1ccc(C(=O)N(Cc2ccc(F)cc2)Cc2ccco2)cc1,-12%[46.1 µM],-9.2%,?,/,-2%,-23%,/,/
Cc1ccc(Cl)cc1NC(=O)NCc1cccn1Cc1ccc(F)cc1,11%[46.1 µM],2.8%,?,/,1%,11%,/,/
N#Cc1cc2c(nc1Cl)CCCC2,-17%,-0.1%,29%,1%,6%,-5%,20%,-17%
CN(Cc1ccccc1)S(=O)(=O)c1ccc(OCC(=O)N2CCOCC2)cc1,3%,1.9%,3%,-7%,/,26%,9%,1%
Cc1cc(S(=O)(=O)NC2CCCCC2)ccc1OCC(=O)N1CCOCC1,7%,6.4%,2%,15%,34%[activator],0%,6%,6%
CN1CCN(C(=O)c2c(NC(=O)c3ccco3)sc3c2CCC(C(C)(C)C)C3)CC1 (configuration not stated),?,0.8%,?,?,-11%,-3%,8%,-17%
COc1cccc(CN2CCN(CCCc3ccccc3)C(CCO)C2)c1OC (configuration not stated),2%[46.1 µM],/,-9%[46.1 µM],19%,-12%,/,-1%,4%
COC(=O)C1=C(C)NC(=O)CC1c1cccc(Cl)c1Cl (configuration not stated),6%,-1.1%,-12%,-23%,-26%,7%,26%,0%
Clc1ccc2oc(-c3ccccc3)cc(=NCCCN3CCOCC3)c2c1,?,/,/,/,21%,/,-6%,?
COc1ccc(C2=NN(C(=O)CSc3nc(=O)n4cc(C)ccc4n3)C(c3ccc(C)cc3)C2)cc1 (configuration not stated),?,/,-25%,/,-25%,/,9%,6%
Cc1cccc(-c2nnc(SCc3ccc(C#N)cc3)n2Cc2ccco2)c1,?,-2.4%,7%,-89%,?,1%,4%,6%

# Additional structures
SMILES,MARV entry inh,Cruzain inh Det,Lassa entry inh,NS1 function inh,2A StopGo,Cruzain noTriton,SARS PLpro yeast,RE007 growth inh
COc1ccccc1CNC(=O)c1ccc(Cl)c(NC2=NC3CS(=O)(=O)CC3S2)c1 (configuration not stated),/,/,/,9%,-2%,/,-5%,2%
COc1ccc(N(CC(=O)Nc2ccccc2C)S(=O)(=O)c2c(C)[nH]c(=O)[nH]c2=O)cc1,/,/,/,4%,-20%,/,2%,10%
COc1ccc(-n2cc(-c3ccccc3)nc2SC)cc1,/,-5.8%,/,-9%,60%[activator],-2%,-19%,-6%
Cc1cc(C)cc(Oc2coc3cc(OC(=O)c4cccnc4)ccc3c2=O)c1,-1%,-5.7%,-1%,2%,2%,8%,2%,-10%
CS(=O)(=O)N(CC(=O)N1CCN(c2ccccc2F)CC1)c1cc(C(F)(F)F)ccc1Cl,-19%,-1.2%,?,-10%,/,?,0%,-5%
